Source: PubChem BioAssay (National Center for Advancing Translational Sciences (NCATS))
D2 potentiator – human D2 receptor positive allosteric modulation; hit rate 0.23% among 360,000; potentiation, % (no concentration beside the values); DiscoveRx D2 beta-arrestin cells, luminescence, 90 min; 100% = 57 uM dopamine signal; P14416; active = potentiation of 50% or more; inconclusive = 30% to 50%; inactive = 30% or less;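 further: compound concentration not given in the record; tested on top of an EC20 dose of dopamine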
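PathHunter beta-arrestin assay in DiscoveRx D2 cells. Compounds were added with an EC20 of dopamine (50 nM final) for 90 min at 37 deg C. Luminescence was read 1 h after detection reagent, with 57 uM dopamine as the EC100 control.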
TRPV1 potentiator – potentiators of human vanilloid receptor 1 (TRPV1) | Q8NER1 | TRPV1-expressing cells, Fluo-8 calcium influx, capsaicin EC20 potentiation; host cell line not named in the record; control for the full effect not named in the record | potentiation, % at 8.33 µM | hit rate 0.02% among 320,000 | AID 540277; active means potentiation above 80%; inconclusive means 30% to 80%; inactive means below 30%; further: 0% is about no effect
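Cells expressing TRPV1 were dye-loaded with Fluo-8 and read kinetically: 10 s baseline, 3 min after compound (agonist portion), then 2 min after EC20 capsaicin (allosteric enhancer portion). Calcium-bound dye fluorescence at 480/520 nm.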
D2 agonist – human D2 receptor agonism in beta-arrestin assay. P14416. DiscoveRx PathHunter D2 beta-arrestin, luminescence, 90 min; 100% = 57 uM dopamine signal. activation, % (test concentration not listed). hit rate 0.084% among 360,000. AID 624465; in the data active = activation above about 40%; inconclusive = about 15% to 40%; inactive = below about 15%; further: compound concentration not given in the record; the text of the record calls up to 30% inactive
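Agonist mode: compounds alone added to overnight-plated D2 PathHunter cells for 90 min at 37 C, with 57 uM final dopamine (EC100) defining full response. Beta-arrestin recruitment detected by chemiluminescent reagent, read after 1 h at ambient temperature.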
Sfp inh – blocks B. subtilis Sfp PPTase activity | Biochemical Sfp PPTase activity, qHTS | Potency, µM, for inactives: max response, negative = inhibition, most hits filed as inhibitors | hit rate 3.5% among 310,000 | AID 1490; active means well fitted inhibition curve with a large enough effect; inconclusive means small, poorly fitted or top-dose-only effect, or another doubt; inactive means no such curve, though single readings can be large or run the other way;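 further: the enzyme is Sfp with the accession as filed and its product quenches rhodamine fluorescence; potency means the concentration at half of the fitted maximal effect; 0% = enzyme reaction without inhibitor and -100% = no enzyme wells; top concentration of the series not given in the record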
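Compounds were incubated with enzyme (final 15 nM) for 15 min at room temperature before substrate addition started the reaction. Fluorescence at 525 nm excitation, 598 nm emission was recorded immediately and after 30 minutes.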
Six1-Eya2 blk – inhibitors of human Six1/Eya2 interaction; activity change, % (concentration not given with the values); AlphaScreen GST-Six1/His-Eya2 binding, biochemical; stronger effect = lower value; control for the full effect not named in the record; AID 651725; hit rate 0.56% among 360,000; Q15475+O00167; in the data active = activity change below about -65%; inconclusive = about -30% to -65%; inactive = above about -30%; further: on the % scale 0 is the no-effect control and ±100 the full control effect
Target sequence (O00167 whole entry, looked up): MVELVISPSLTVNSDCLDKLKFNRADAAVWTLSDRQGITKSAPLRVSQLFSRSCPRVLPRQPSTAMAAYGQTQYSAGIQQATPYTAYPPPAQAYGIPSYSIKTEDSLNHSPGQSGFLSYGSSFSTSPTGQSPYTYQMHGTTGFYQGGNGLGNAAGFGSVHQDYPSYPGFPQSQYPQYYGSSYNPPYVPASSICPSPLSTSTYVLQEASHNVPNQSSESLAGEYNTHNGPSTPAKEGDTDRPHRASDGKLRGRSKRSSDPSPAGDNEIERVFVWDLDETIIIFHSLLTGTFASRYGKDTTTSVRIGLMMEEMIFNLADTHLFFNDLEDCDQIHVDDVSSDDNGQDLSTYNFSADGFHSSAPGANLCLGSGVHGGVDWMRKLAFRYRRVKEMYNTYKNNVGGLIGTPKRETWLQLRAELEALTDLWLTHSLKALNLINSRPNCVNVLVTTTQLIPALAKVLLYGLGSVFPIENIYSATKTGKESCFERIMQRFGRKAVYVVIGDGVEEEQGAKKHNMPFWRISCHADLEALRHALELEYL
Target sequence (Q15475 whole entry, looked up): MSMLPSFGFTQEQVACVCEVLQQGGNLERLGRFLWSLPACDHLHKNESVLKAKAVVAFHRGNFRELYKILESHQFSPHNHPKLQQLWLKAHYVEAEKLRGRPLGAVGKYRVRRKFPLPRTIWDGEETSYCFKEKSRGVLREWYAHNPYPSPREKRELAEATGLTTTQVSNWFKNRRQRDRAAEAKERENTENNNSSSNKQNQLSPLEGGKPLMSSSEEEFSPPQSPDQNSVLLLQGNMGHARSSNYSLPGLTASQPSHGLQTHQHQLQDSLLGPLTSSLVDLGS
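AlphaScreen luminescence read after one hour at 37 °C in darkness. Pin-transferred compounds met GST-Six1 and His-Eya2 protein (5X stock 250 nM/500 nM) plus glutathione donor and Ni-chelate acceptor beads (5X, 50 ug/mL).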
CtBP-E1A blk – inhibitors of CtBP/E1A interaction. AlphaScreen GST-E1A/His-CtBP binding, 1536-well; stronger effect = lower value; control for the full effect not named in the record. activity change, % (test concentration not listed). hit rate 0.49% among 340,000. AID 651724; in the data active means activity change below about -65%; inconclusive means about -30% to -65%; inactive means above about -30%; further: on the % scale 0 is the no-effect control and ±100 the full control effect; compound concentration not given in the record
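In 5 uL wells, 23 nL compound meets equimolar GST-E1A and His-CtBP (5X stock 125 nM each) for 2 h, 37 °C. Beads (5X, 50 ug/mL) then 1 h, 37 °C, dark.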
PINK1 modulator – PINK1 expression modulation; PINK1 immunofluorescence, high-content cytometry, 24 h; Potency, µM (highest dose often 76.6 µM), inactives show top-dose activation (PINK1 increase), actives largely listed as activators; hit rate 0.2% among 410,000; AID 624263; active = well fitted activation curve with a large enough effect; inconclusive = small, poorly fitted or top-dose-only effect; inactive = flat fitted curve, though single readings scatter; cell line not stated here;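 further: potency means the concentration at half of the fitted maximal effect; % of control where 0% means no effect; nearly all actives have a fitted effect of over 65% in size; a mitochondrial uncoupler was the plate control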
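Cells are seeded, rested 12 hours, then given compound at five concentrations or DMSO for 24 hours. After fixation, blocking and antibody staining, PINK1 amount and mitochondrial localization are scored; CCCP serves as control.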
An asterisk follows results filed as active; ? = inconclusive; · = no result given; [ ] = another dose, or the depositor's remark.

Structure,D2 potentiator,TRPV1 potentiator,D2 agonist,Sfp inh,Six1-Eya2 blk,CtBP-E1A blk,PINK1 modulator
O=C(CCc1ccccc1)NCCc1ccc(F)cc1,-14,-5,-2.7,8%,-4,·,-0.2%
O=C(Cn1cnc2ccccc2c1=O)N(Cc1ccco1)c1ccc(O)cc1,-9,2,-2.7,21%,-2,0,1.8%[38.3 µM]
Cc1ccccc1-n1ncc2c1CC(C)(C)CC2NC(=O)C1CCC1 (centres undefined),1,-25,0.6,9%,-6,1,1.7%
O=C(NC1CCCc2ccccc21)c1ccccn1 (centres undefined),-2,0,0.0,3%,-6,6,3.3%
CCn1cc(Cl)c(C(=O)Nc2ccccc2C(N)=O)n1,-5,23,5.1,17%,0,-6,0.7%
COc1ccc(N2CCN(CCNC(=O)Nc3cc(Cl)ccc3OC)CC2)cc1,-10,11,0.3,0%,-11,·,2.2%
C=C1C2=C(C(=O)N1OC)[C@@H](O)[C@@](C)(O)[C@@H](CCCCC)O2,4,·,2.9,·,5,4,2.4%
CCCCCCCNC(=O)CN1C(=O)CSc2ccc(S(=O)(=O)N3CCOCC3)cc21,-9,-2,-2.6,0%,4,2,-0.8%
CCS(=O)(=O)N1CCN=C1SCc1cccnc1,-9,4,-0.1,18%,2,·,-0.3%
CC(C)C(N)c1csc(Nc2nncc3ccccc23)n1 (centres undefined),-7,·,-4.5,·,8,0,0.2%
C[C@@H](c1ccccc1)N1C[C@H](COCc2ccccc2)Oc2cc(N3CC[C@H](O)C3)ccc2S1(=O)=O,·,·,·,·,-15,-10,1.6%
COc1ccccc1-c1nnc(NC(=O)C(C)C)s1,-6,20,-2.2,11%,-11,-8,7.3%
CCOC(=O)[C@@H]1[C@H]2COc3ccc(Br)cc3[C@@H]2N2C(=O)N(c3ccc(Cl)cc3)C(=O)[C@@]12C,-5,·,-4.0,·,27,1,0.5%
Cc1c(Cc2ccccc2)c(NCCN(C)C)n2c(nc3ccccc32)c1C#N,-10,10,2.1,14%,6,13,-0.8%
COc1cc(NC(=S)N2CCCC(CO)C2)c(OC)cc1Cl (centres undefined),-5,9,-0.5,40µM*,-3,1,0.6%
CC1CCCC(NC(=O)NC(=O)CCl)C1C (centres undefined),-1,4,-3.2,-21%,7,-2,-1.2%
CSc1ncc(Cl)c(C(=O)Nc2cccc(Cl)c2)n1,-1,3,3.0,-4%,-2,·,-0.8%
Cc1oc(C)c(S(=O)(=O)NCc2cccs2)c1C(=O)O,0,7,-4.3,5%,19,·,3.1%
Cc1cccc(-c2nc(Nc3ccc(O)cc3)c3ccccc3n2)c1,-4,-12,4.4,8%,-16,-14,-2.5%
O=[N+]([O-])c1cc([N+](=O)[O-])c(Oc2cncc(Cl)c2)cc1NN1CCCCC1,3,-13,-1.1,6%,4,-12,1.5%
COc1ccccc1[C@H]1C(c2ccc(F)cc2)=NN(c2ccccc2)[C@@H]1CO,·,·,-1.3,-8%,39,32,5.8%
CCOC(=O)c1cc(-c2ccc(OC)cc2)nn1-c1ccc(C(=O)O)cc1,-3,-9,-3.6,12%,3,4,0.5%
COc1ccc(/C=N/NC(=O)c2ccccc2)cc1OS(=O)(=O)c1ccccc1,3,1,-2.4,-2%,-15,-8,3.4%
COc1ccc(N(CC(O)CN2CCCCC2)S(=O)(=O)c2ccc(C)cc2)cc1 (centres undefined),-6,-1,-1.9,19%,0,3,-2.4%
CC(C)(C)n1ncc2c(=O)n(CC(=O)N3CCc4ccccc43)cnc21,-4,12,-0.2,13%,8,6,-0.2%
Fc1ccccc1CSc1nc2ncc(Br)cc2[nH]1,-6,6,5.7,-5%,4,-1,0.7%
N#Cc1ccc(-c2ccc(F)cc2)nc1Oc1ccc(F)cc1,-5,6,-4.2,5%,-1,-2,8.6%
CCCCC(=O)Nc1cc(OC)c(NC(=S)Nc2ccc(OC)cc2)cc1OC,20,·,-0.5,·,0,·,0.6%
CCc1nc2ccc(C(=O)NCCN3CCOCC3)cn2c1N(C=O)Cc1ccc(OC)cc1,-16,·,-6.9,·,8,0,-0.2%
O=C(Nc1ccc(C(=O)N2CCCC2)cc1)c1cccc(C(F)(F)F)c1,-8,·,0.9,·,-2,3,0.0%
Cc1ccc(Cl)cc1NC(=O)COC(=O)CSc1ccccc1,-9,·,-4.0,·,-6,6,1.5%
Oc1ccccc1Nc1nc(NCc2ccco2)c2ccccc2n1,-6,13,1.1,25µM*,-15,3,23%
C=CCNc1nc2ccccc2c(=O)[nH]1,-2,-2,0.4,17%,0,1,1.5%
COc1cc(NC(=O)c2sc3ncn(CC(=O)N4CCCCC4)c(=O)c3c2C)cc(OC)c1OC,0,-10,-1.5,18%,-1,-19,2.1%
COc1ccccc1N1CCN(C(=O)c2cccc(Oc3ccccc3)c2)CC1,0,-11,-3.9,2%,-4,1,3.3%
Cc1[nH]c2ccc(-c3nnc(SCC(=O)N4CCCc5ccccc54)o3)cc2c1C,-7,1,1.5,2%,-1,7,·
C=CC(=O)NC(NC(=O)C=C)c1ccccc1F,-1,-4,0.9,13%,5,5,4.2%
COc1cccc(NC(=O)c2ccnc(N3CCC(C(=O)NCc4ccccc4OC)CC3)c2)c1,7,-9,1.8,-25%,0,0,6.1%
CCc1ccc(NC(=O)c2ccc(F)c(S(=O)(=O)NCC3COc4ccccc4O3)c2)cc1 (centres undefined),15,-11,2.0,24%,10,0,22%
CCCCn1c(N)c(-c2nc3ccccc3s2)c2c([N+](=O)[O-])nn(C)c(=O)c21,-12,-8,-1.0,?,-9,-19,?

Only D2 potentiator and CtBP-E1A blk, for 2 of the compounds above:
mol	D2 potentiator	CtBP-E1A blk
CCc1ccc(NC(=O)c2ccc(F)c(S(=O)(=O)NCC3COc4ccccc4O3)c2)cc1 (centres undefined)	15	0
CCCCn1c(N)c(-c2nc3ccccc3s2)c2c([N+](=O)[O-])nn(C)c(=O)c21	-12	-19

Continued:
Structure,D2 potentiator,TRPV1 potentiator,D2 agonist,Sfp inh,Six1-Eya2 blk,CtBP-E1A blk,PINK1 modulator
O=C(/C=C/c1cccc([N+](=O)[O-])c1)c1cccs1,-7,-7,-6.5,3%,3,0,-2.5%
CC1(C)Cc2c(sc(NC(=O)C(=O)N3CCCC3)c2C(N)=O)CO1,0,-6,-3.1,-29%,2,1,0.3%
CCSc1nnc(NC(=O)C2CCCN(C(=O)c3ccc(Cl)cc3)C2)s1 (centres undefined),-7,·,-0.8,·,-20,-8,-1.6%
Cc1c(NS(C)(=O)=O)c(=O)n(-c2ccccc2)n1C,8,5,2.8,8%,2,-3,-1.3%
Cc1ccc(S(=O)(=O)N(Cc2cccc([N+](=O)[O-])c2)C(=O)N2CCN(C)CC2)cc1,-15,-3,-0.9,·,9,-19,0.5%
CCN(CC)Cc1c(O)ccc2c(=O)c(-c3ccc4c(c3)OCCO4)coc12,-10,15,-1.5,-4%,5,-9,-1.2%
CCOC(=O)Cc1csc(NC(=O)c2ccc3c(c2)OCO3)n1,9,-13,-1.0,25%,0,-3,-1.7%
O=C1C=C(c2ccc3c(c2)OCO3)C[C@@H](c2ccc(Cl)cc2)C1,-6,-9,4.9,·,11,0,-0.4%
CCNC(=O)NC(=O)COC(=O)CCc1nc(=O)c2ccccc2n1C,-9,-8,-0.8,3%,-2,4,-3.4%
N#Cc1c(-c2ccccc2)nc2n(-c3ccccc3)nc(C(=O)Nc3ccccc3)n2c1=O,-42,5,-5.3,-2%,-6,-1,-1.2%
C=CCn1c(SCc2nc3c(c(=O)[nH]c(=O)n3CCCC)n2CCC)nnc1-c1ccccc1,-15,0,-2.9,5%,-2,-2,-2.2%

Of the compounds above, these have a Cl atom.
Structure,D2 potentiator,TRPV1 potentiator,D2 agonist,Sfp inh,Six1-Eya2 blk,CtBP-E1A blk,PINK1 modulator
CCn1cc(Cl)c(C(=O)Nc2ccccc2C(N)=O)n1,-5,23,5.1,17%,0,-6,0.7%
COc1ccc(N2CCN(CCNC(=O)Nc3cc(Cl)ccc3OC)CC2)cc1,-10,11,0.3,0%,-11,·,2.2%
CCOC(=O)[C@@H]1[C@H]2COc3ccc(Br)cc3[C@@H]2N2C(=O)N(c3ccc(Cl)cc3)C(=O)[C@@]12C,-5,·,-4.0,·,27,1,0.5%
COc1cc(NC(=S)N2CCCC(CO)C2)c(OC)cc1Cl (centres undefined),-5,9,-0.5,40µM*,-3,1,0.6%
CC1CCCC(NC(=O)NC(=O)CCl)C1C (centres undefined),-1,4,-3.2,-21%,7,-2,-1.2%
CSc1ncc(Cl)c(C(=O)Nc2cccc(Cl)c2)n1,-1,3,3.0,-4%,-2,·,-0.8%
O=[N+]([O-])c1cc([N+](=O)[O-])c(Oc2cncc(Cl)c2)cc1NN1CCCCC1,3,-13,-1.1,6%,4,-12,1.5%
Cc1ccc(Cl)cc1NC(=O)COC(=O)CSc1ccccc1,-9,·,-4.0,·,-6,6,1.5%
CCSc1nnc(NC(=O)C2CCCN(C(=O)c3ccc(Cl)cc3)C2)s1 (centres undefined),-7,·,-0.8,·,-20,-8,-1.6%
O=C1C=C(c2ccc3c(c2)OCO3)C[C@@H](c2ccc(Cl)cc2)C1,-6,-9,4.9,·,11,0,-0.4%

This is a random part of the collection; any-hit rate near 3.7%.
